High-throughput results deposited in PubChem by National Center for Advancing Translational Sciences (NCATS).
Lassa entry inh: qHTS for Inhibitors of binding or entry into cells for Lassa Virus | 1.2% of 300,000 active | Lassa virus pseudotype entry inhibition, cell reporter; control for the full effect not named in the record | Potency, µM (top dose mostly 37.9 µM), for the others: at the top dose activity change, negative = inhibition, most hits filed as inhibitors; active means well fitted inhibition curve with a large enough effect; inconclusive means small, poorly fitted or top-dose-only effect, or effect the other way; inactive means flat fitted curve, though single readings scatter; tested in HEK293 cells; also: % is scaled to controls: 0 for no effect and ±100 for the full control effect; nearly all actives have a fitted effect of over 50% in size; luciferase read-out
NS1 function inh: qHTS Assay for Inhibitors of Influenza NS1 Protein Function. 0.4% of 270,000 active. S. cerevisiae slowed by influenza A NS1, growth recovery by OD600. AID 2326, 2010. Potency, µM (doses to about 46.1 µM), inactives show at the top dose activity, positive = more growth; active means well fitted rising curve with a large enough effect; inconclusive means small, poorly fitted or top-dose-only effect; inactive means no such curve, though single readings can be large or run the other way; also: nearly all actives have a fitted effect of over 50% in size
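A cell-based growth assay was used: compounds that relieve NS1-induced slow growth of budding yeast raise OD600. Assay medium was yeast nitrogen base with ammonium sulphate and -URA supplement, pH 6.0, with 2% galactose.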
Cruzain noTriton: qHTS Assay for Promiscuous and Specific Inhibitors of Cruzain (without detergent); Cruzipain (Trypanosoma cruzi), P25779; purified cruzain, Z-FR-AMC fluorescence, no detergent; Potency, µM, for inactives: max response, negative = inhibition, most hits filed as inhibitors; 2.3% of 200,000 active;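 also: plate controls were enzyme without inhibitor for no effect and buffer without enzyme for full effect; nearly all actives have a fitted effect of over 40% in size; top concentration of the series not given in the record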
Target sequence (P25779 123-467 limits assumed): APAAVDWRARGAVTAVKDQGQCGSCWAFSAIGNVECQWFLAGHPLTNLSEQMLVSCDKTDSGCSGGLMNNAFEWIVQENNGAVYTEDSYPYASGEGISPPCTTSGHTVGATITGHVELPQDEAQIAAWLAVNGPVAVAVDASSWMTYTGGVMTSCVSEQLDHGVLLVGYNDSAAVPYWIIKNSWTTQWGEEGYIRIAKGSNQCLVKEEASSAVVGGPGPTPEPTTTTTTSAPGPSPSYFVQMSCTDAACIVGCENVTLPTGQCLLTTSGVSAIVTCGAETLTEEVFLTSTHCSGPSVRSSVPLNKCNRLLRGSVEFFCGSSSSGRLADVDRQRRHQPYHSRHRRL
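Detergent-free condition (0.00005% Triton X-100) in acetate buffer pH 5.5 with DTT. 1.5 nM enzyme and compound were pre-mixed 15 min, then 2 uM Z-FR-AMC substrate added; reaction progress from fluorescence change between first and third reads (60 s).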
Marburg entry inh: qHTS for inhibitors of binding or entry into cells for Marburg Virus | Marburg virus pseudotyped entry inhibition, cell reporter; control for the full effect not named in the record; about a third of the inactives were read at about 46 µM | Potency, µM (doses to about 37.8 µM), without a hit: at the top dose activity change, negative = inhibition, hits mostly inhibitors | 1.8% of 300,000 active; active = well fitted inhibition curve with a large enough effect; inconclusive = small, poorly fitted or top-dose-only effect, or effect the other way; inactive = flat fitted curve, though single readings scatter; tested in HEK293 cells; about a fifth of its hits are not listed in these tables; also: % is scaled to controls: 0 for no effect and ±100 for the full control effect; luciferase read-out
RE007 growth inh: qHTS Assay for Inhibitors of the HIV-1 protein Vpr; S. pombe RE007 Vpr strain, BacTiter-Glo ATP luminescence, 24 h; control for the full effect not named in the record; Potency, µM (top dose mostly 92.2 µM), for inactives: at the top dose activity change, negative = less growth; 0.21% of 360,000 active; AID 651644, 2012; active = well fitted falling curve with a large enough effect; inconclusive = small, poorly fitted or top-dose-only effect; inactive = no such curve, though single readings can be large or run the other way;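 also: % is scaled to controls: 0 for no effect and ±100 for the full control effect; nearly all actives have a fitted effect of over 50% in size; the assay follows cell death caused by Vpr and the record does not say whether a fall means rescue or toxicity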
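Fission yeast strain RE007, carrying one chromosomally integrated HIV-1 vpr copy, was seeded at OD 0.01 in PMG+AL medium with 23 nL pinned compound. After 24 h at 30 °C and 99% humidity, viability was read by BacTiter-Glo luminescence.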
SARS PLpro yeast: qHTS of Yeast-based Assay for SARS-CoV PLP. S. cerevisiae expressing SARS-CoV PLpro, growth rescue; control for the full effect not named in the record. Potency, µM (top dose mostly 32.9 µM), without a hit: at the top dose activity, positive = growth rescue. 0.19% of 330,000 active; active means well fitted rising curve with a large enough effect; inconclusive means small, poorly fitted or top-dose-only effect; inactive means no such curve, though single readings can be large or run the other way; also: 0% is about no effect; nearly all actives have a fitted effect of over 55% in size; growth read by luminescence after 48 h
2A StopGo: High Throughput Screening for Foot and Mouth Disease Virus Antivirals | 1.2% of 410,000 active | AID 1159524, 2015 | human cells with a luciferase reporter of 2A StopGo recoding; control for the full effect not named in the record | Potency, µM (series often up to 57.9 µM), for inactives: at the highest dose signal change, negative = less light; active = well fitted falling curve with a large enough effect; inconclusive = small, poorly fitted or top-dose-only effect; inactive = no such curve, though single readings can be large or run the other way; tested in HEK293T cells; also: % is scaled to controls: 0 for no effect and ±100 for the full control effect; nearly all actives have a fitted effect of over 45% in size; luciferase light after 4 h
Cruzain inh Det: qHTS Assay for Promiscuous and Specific Inhibitors of Cruzain (with detergent); Cruzipain (Trypanosoma cruzi), P25779; purified cruzain, Z-FR-AMC fluorescence, 0.01% Triton; Potency, µM, inactives show max response, negative = inhibition, hits mostly inhibitors; 0.43% of 200,000 active;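 also: plate controls were neutral wells for no effect and buffer without enzyme for full effect; nearly all actives have a fitted effect of over 40% in size; top concentration of the series not given in the record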
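15 min RT preincubation of 1.5 nM cruzain with compound, then 2 uM Z-FR-AMC added; kinetic AMC fluorescence, 60 s delta. Triton X-100 0.01%, pH 5.5.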
* marks the source's active call; other numbers are inactive results; ? = inconclusive; · = no result given; [ ] = dose if it differs, or a comment. Unless noted, calls follow the shape of the dose curve; as a rule, active = well fitted curve in the direction sought with a large enough effect; inconclusive = small, poorly fitted or top-dose-only effect, or another doubt; inactive = no such curve, though single readings can be large; an effect the other way counts as inactive or inconclusive. Potency is read from the fitted curve at half-maximal effect.

Start of the data: the first 3 records as a preview:
SMILES	Lassa entry inh	NS1 function inh	Cruzain noTriton	Marburg entry inh	RE007 growth inh	SARS PLpro yeast	2A StopGo	Cruzain inh Det
CCCC(=O)Nc1nc2c(c(=O)[nH]1)CCCC2	7%	5%	-7%	-4%	-2%	2%	1%	4.9%
CC(=O)c1ccc(OCC(=O)N2CCN(S(=O)(=O)c3ccc(Br)s3)CC2)cc1	6%	·	·	24%	33%	1%	-16%	·
CN(C(=O)c1cc(-n2cnnc2)ccc1Cl)c1ccccc1	?	21%	-4%	22%	6%	-17%	43%[activator]	-1.9%

The whole of this part, from the first entry:
SMILES	Lassa entry inh	NS1 function inh	Cruzain noTriton	Marburg entry inh	RE007 growth inh	SARS PLpro yeast	2A StopGo	Cruzain inh Det
CCCC(=O)Nc1nc2c(c(=O)[nH]1)CCCC2	7%	5%	-7%	-4%	-2%	2%	1%	4.9%
CC(=O)c1ccc(OCC(=O)N2CCN(S(=O)(=O)c3ccc(Br)s3)CC2)cc1	6%	·	·	24%	33%	1%	-16%	·
CN(C(=O)c1cc(-n2cnnc2)ccc1Cl)c1ccccc1	?	21%	-4%	22%	6%	-17%	43%[activator]	-1.9%
CC1CN(S(=O)(=O)c2ccc(-c3nc4ccccc4s3)cc2)CC(C)O1 (stereo not given)	5%	-8%	-16%	-11%	-7%	4%	·	-2.6%
Cc1ccc(SCc2cc(=O)[nH]c(N3CCN(C)CC3)n2)cc1	-5%	0%	-6%	3%	-9%	4%	-17%	2.8%
O=C(/C=C/c1ccc2ccccc2c1)c1ccoc1	11%	2%	20µM*	5%	-19%	-3%	45%[activator]	6.5%
COc1ccc(Cn2c(=S)[nH]c3ccccc3c2=O)cc1	·	-3%	·	·	9%	2%	16%	·
CCOc1ccc(C(=O)Nc2c(C(=O)c3ccccc3)oc3ccccc23)cc1	13%[46.1 µM]	·	21%	-19%[46.1 µM]	·	·	-16%	-0.3%
CC(=O)c1ccc(O)c(CSc2nncn2C)c1	-8%[46.1 µM]	·	·	7%[46.1 µM]	-10%	0%	-14%	·
O=C(c1ccco1)N1CCN(C(=O)c2cc(-c3ccccc3F)no2)CC1	·	-18%	·	·	-5%	0%	23%	·
COc1ccc(CCC(=O)OCC(=O)Nc2ccc(OC)c(OC)c2)cc1OC	17%[46.1 µM]	-2%	·	?	-8%	1%	17%	·
CC(C)(C)C(O)CN1CCCC1 (stereo not given)	-6%[46.1 µM]	·	·	?	1%	14%	-10%	·
O=C(Nn1c(-c2ccccc2)nc2ccccc2c1=O)C1CCC1	31%[14.3 µM]	-6%	-7%	-8%	-1%	4%	-17%	2.1%
COc1ccc(CCNC(=O)C2CC(=O)N(c3ccc(F)cc3)C2)cc1OC (stereo not given)	14%	-6%	-7%	12%	5%	3%	-8%	2.9%
Cc1ccc(C)c(OCc2cc(C(=O)N3CCNC(=O)C3)no2)c1	·	9%	·	·	-3%	1%	-11%	·
O=c1[nH]c(CN2CC=C(c3ccccc3)CC2)nc2scc(-c3cccs3)c12	·	0%	·	·	-13%	-2%	-15%	·
Clc1cccc(Cl)c1Cn1cnc2c(NCc3ccco3)ncnc21	?	-15%	-7%	?	-7%	17%	0%	-3.8%
CC1=CC(=C(C#N)C#N)C=C(C)N1CCN1CCNCC1	18%	9%	·	-17%[46.1 µM]	4%	-5%	1%	·
COc1ccc(NC(=O)NCc2cccn2C)c(OC)c1	?	14%	7%	20%	13%	3%	-23%	5.4%
Cc1ccc(C(=O)NCc2ccccc2CN2CCCC2)cc1S(=O)(=O)N1CCOCC1	17%	·	·	-13%	3%	0%	-11%	·
CC(O)CNc1ccc([N+](=O)[O-])cc1S(=O)(=O)N1CCOCC1 (stereo not given)	6%	·	·	?	17%	-1%	4%	·
On1c2c(c3c4nonc4ccc31)CCCC2	·	-28%	-5%	·	·	-44%	·	-15%
c1csc(CNCCCN2CCOCC2)c1	9%	2%	8%	0%	4%	5%	-4%	4.5%
NC(=S)N=Nc1c(O)[nH]c2ccccc12	?	-8%	13µM*	4%	3%	?	-9%	?
O=C(CC1CC2CCC1C2)N1CCN(S(=O)(=O)c2ccccc2F)CC1 (stereo not given)	-2%	·	·	16%	-14%	4%	-21%	·
O=C1c2ccccc2NC(c2ccccc2Cl)N1N=C1CCCCCC1 (stereo not given)	1%	7%	-13%	?	-16%	-15%	60%[activator]	-2.8%
CCC(=O)Nc1cc(-c2nn(CC(=O)N3CCCCC3)c(=O)c3ccccc23)ccc1N1CCOCC1	-12%	3%	-1%	8%	14%	1%	9%	0.4%
N/C(=N/O)c1nc(N2CCCC2)nc(N(c2ccccc2)c2ccccc2)n1	?	-33%	-2%	?	4%	5%	0%	-12%
C=CCOc1ccccc1CN1CCSCC1	-10%	-5%	-3%	15%	5%	1%	-8%	4.4%
O=C(Nc1nc2ccc(Cl)cc2s1)[C@@H]1CCCN1C(=O)c1cccs1	?	3%	?	?	0%	10%	50%[activator]	?
CC12Cc3ccc4ccccc4c3C=C1C[N+](C)(C)C2 (stereo not given)	21%	1%	-4%	?	-19%	-1%	0%	-6.0%
C(=NN1CCCCCC1)c1ccc2c(c1)OCO2	?	·	·	?	-5%	·	-41%	·
Cn1c(SCC(=O)NC2CCCCC2)nnc1-c1ccc(N)cc1	-18%	3%	·	-9%[46.1 µM]	11%	0%	-17%	·
NS(=O)(=O)c1ccc(NCc2cc(Cl)ccc2OCc2ccccc2F)cc1	-25%	10%	-4%	-4%	15%	-7%	?	-2.6%
CC(C)C(NS(=O)(=O)c1c(Cl)cccc1Cl)C(=O)OCC(=O)c1c[nH]c2ccccc12 (stereo not given)	?	-30%	32µM*	?	0%	-14%	-25%	-11%
N#Cc1cc(C(=O)c2cc(F)ccc2O)cn(-c2nccs2)c1=O	-14%	-35%	?	-13%	-18%	-60%	1%	-11%
CCOC(=O)N1CCN(C(=O)CSc2ccc(Cl)cc2)CC1	14%	-58%	9%	14%	-21%	4%	20%	1.7%
Nn1cc(-c2ccccc2)nc1SCC(=O)NCC(F)(F)F	·	-2%	·	·	-6%	0%	13%	·
CO/N=C/c1ccc(Sc2ccccc2)c([N+](=O)[O-])c1	?	-46%	-8%	?	-8%	-25%	-4%	3.2%
O=C(NCc1ccccc1)C1=C[C@H](C2CCCCC2)C[C@H](OCc2ccc(CO)cc2)O1	·	7%	·	·	22%	1%	-4%	·
COc1ccccc1CNC(=O)C(C)n1cccc1C(=O)c1ccccc1 (stereo not given)	?	-18%	·	-21%[46.1 µM]	-1%	0%	43%[activator]	·
CCOc1ccc(NC(=O)c2ccccc2NS(=O)(=O)c2ccc(F)cc2)c([N+](=O)[O-])c1	?	0%	-3%	?	0%	5%	-22%	-4.7%
O=C(CSc1nc(-c2ccccc2)ns1)NCC1CCCO1 (stereo not given)	?	-5%	·	7%[46.1 µM]	-1%	1%	16%	·
O=C(NCCc1c[nH]c2ccccc12)C(=O)NCC(c1cccnc1)N1CCN(c2ccccc2)CC1 (stereo not given)	?	-5%	6%	-55%	0%	3%	?	-4.1%
CCn1c(SCC(=O)c2c(N)n(C)c(=O)n(C)c2=O)nc2sc(C)c(C)c2c1=O	·	-4%	-3%	3%	·	-4%	·	2.7%
CCOC(=O)c1c(NC(=O)CCCOc2ccccc2C)sc2c1CCC(C)C2 (stereo not given)	-4%[46.1 µM]	·	-2%	·	·	·	-20%	-1.0%
COc1ccc(NC(=O)Cn2c(=O)n(CC(=O)NCCc3ccccc3)c(=O)c3ccccc32)cc1	22%[46.1 µM]	·	?	-18%[46.1 µM]	·	·	-12%	-1.0%
CCC(Oc1ccccc1)C(=O)N1CCN(C(=O)C(CC)Oc2ccccc2)CC1 (stereo not given)	0%	-1%	18%	12%	-3%	-5%	·	1.9%

Quoted at random: 4 entries already listed
SMILES	Lassa entry inh	NS1 function inh	Cruzain noTriton	Marburg entry inh	RE007 growth inh	SARS PLpro yeast	2A StopGo	Cruzain inh Det
NS(=O)(=O)c1ccc(NCc2cc(Cl)ccc2OCc2ccccc2F)cc1	-25%	10%	-4%	-4%	15%	-7%	?	-2.6%
C(=NN1CCCCCC1)c1ccc2c(c1)OCO2	?	·	·	?	-5%	·	-41%	·
O=C(Nn1c(-c2ccccc2)nc2ccccc2c1=O)C1CCC1	31%[14.3 µM]	-6%	-7%	-8%	-1%	4%	-17%	2.1%
Nn1cc(-c2ccccc2)nc1SCC(=O)NCC(F)(F)F	·	-2%	·	·	-6%	0%	13%	·
